# Yeast UUG start – yeast start codon fidelity modulation | activity score, % at 18.7 µM | 350,000 compounds, 0.13% hits | AID 602363 | S. cerevisiae UUG-firefly luciferase reporter, luminescence/redox ratio;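 active means replicate mean at a twofold rise or more, about +100% in these data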;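 further: firefly luciferase made from a UUG start codon reports start codon fidelity; reporter light over untreated wells divided by growth signal over untreated wells; some hits fall short of that in this replicate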
# HIV Env fusion – inhibitors of HIV Env-mediated cell fusion. 360,000 compounds, 1.1% hits. AID 651610. HeLa-JRFL Env/CEM21 cell fusion, luciferase. inhibition, % at 12.3 µM;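 active means mean replicate inhibition score of at least 50 and every replicate individually at or above 50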;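 further: 0% = plate neutral controls and 100% = maraviroc near 300 nM; one replicate is shown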
# Starred values were filed as active, the others as inactive; [ ] = another dose, or the depositor's remark. The list is partial (hit frequency here may not be typical).
SMILES,Yeast UUG start,HIV Env fusion
Cc1noc(C)c1S(=O)(=O)Nc1ccc2c(c1)CC(=O)N([C@H](C)CO)C[C@@H](C)[C@H](CN(C)S(C)(=O)=O)O2,-8.8,20.0[16.7 µM]
COc1ccccc1C#Cc1cnc2c(c1)C(=O)N([C@@H](C)CO)C[C@H](C)[C@H](CN(C)C(=O)CN(C)C)O2,-1.0,8.0[16.7 µM]
C[C@@H]1CCCCO[C@@H](CN(C)C(=O)CCC(F)(F)F)[C@@H](C)CN([C@@H](C)CO)C(=O)c2cc(NC(=O)Cc3ccccc3)ccc2O1,23.9,-25.5[16.7 µM]
C[C@@H]1CN([C@H](C)CO)C(=O)Cc2cc(NS(=O)(=O)c3cn(C)cn3)ccc2O[C@H]1CN(C)CC1CCCCC1,-13.6,1.5[16.7 µM]
C[C@H](CO)N1C[C@H](C)[C@@H](CN(C)C(=O)NC2CCCCC2)Oc2ccc(NC(=O)Nc3ccc(C(F)(F)F)cc3)cc2CC1=O,-9.6,-18.4[16.7 µM]
O=C(NCC[C@@H]1CC[C@@H](NS(=O)(=O)Cc2ccccc2)[C@H](CO)O1)C1CC1,-2.6,-19.1[16.7 µM]
COc1cccc(NC(=O)N(C)C[C@H]2Oc3cc(-c4cccc(C(=O)N(C)C)c4)ccc3S(=O)(=O)N([C@H](C)CO)C[C@H]2C)c1,-2.8,-59.8[16.7 µM]
C[C@H]1CN([C@@H](C)CO)S(=O)(=O)c2ccc(C#Cc3ccc(F)cc3)cc2O[C@H]1CN(C)S(=O)(=O)c1ccc(F)cc1,-26.1,30.3[16.7 µM]
CCNC(=O)C[C@@H]1CC[C@@H]2[C@H](COc3ccc(NC(=O)C4CCOCC4)cc3C(=O)N2C)O1,4.6,-6.0[16.7 µM]
Cc1ccccc1S(=O)(=O)NCC[C@@H]1CC[C@H](NC(=O)Nc2cccc(F)c2)[C@H](CO)O1,-0.2,-3.1[16.7 µM]
COc1ccc(S(=O)(=O)Nc2ccc3c(c2)C(=O)N([C@H](C)CO)C[C@@H](C)[C@@H](CN(C)Cc2ccc(C(F)(F)F)cc2)OCCCC[C@H](C)O3)cc1,33.1,73.9*[16.7 µM]
COc1ccccc1CNC(=O)C[C@H]1C[C@H]2c3cc(NS(C)(=O)=O)ccc3O[C@H]2[C@@H](CO)O1,-15.9,6.2[16.7 µM]
CCCN(C)C[C@@H]1OCCCC[C@@H](C)Oc2ccc(NS(=O)(=O)c3ccccc3)cc2C(=O)N([C@@H](C)CO)C[C@@H]1C,25.0,-4.1[16.7 µM]
COc1ccc(NC(=O)N(C)C[C@@H]2Oc3c(NS(=O)(=O)c4cn(C)cn4)cccc3C(=O)N([C@@H](C)CO)C[C@H]2C)cc1,-2.7,3.4[16.7 µM]
C[C@@H]1CN([C@@H](C)CO)C(=O)Cc2cc(NS(C)(=O)=O)ccc2O[C@H]1CN(C)Cc1ccccc1,7.0,-2.6[16.7 µM]
C[C@H]1CN([C@@H](C)CO)C(=O)Cc2cc(NS(=O)(=O)c3cn(C)cn3)ccc2O[C@@H]1CN(C)Cc1ccc(Oc2ccccc2)cc1,14.4,9.3[16.7 µM]
C[C@H]1CCCCO[C@@H](CN(C)C(=O)NC2CCCCC2)[C@@H](C)CN([C@@H](C)CO)C(=O)c2cc(NC(=O)CCC(F)(F)F)ccc2O1,-15.0,-86.5[16.7 µM]
Cc1noc(C)c1NC(=O)N(C)C[C@H]1Oc2ncc(C#CC3CCCCC3)cc2C(=O)N([C@H](C)CO)C[C@H]1C,11.5,15.3[16.7 µM]
C[C@@H]1CN([C@@H](C)CO)C(=O)c2cccc(NC(=O)c3ccncc3)c2O[C@@H]1CN(C)CC1CCCCC1,-14.3,-7.4[16.7 µM]
COc1cccc(NC(=O)N[C@H]2C=C[C@@H](CC(=O)Nc3ccccc3)O[C@@H]2CO)c1,-8.5,-18.5[16.7 µM]

# Rewritten field by field: part of the list above
canonical_smiles: COc1cccc(NC(=O)N(C)C[C@H]2Oc3cc(-c4cccc(C(=O)N(C)C)c4)ccc3S(=O)(=O)N([C@H](C)CO)C[C@H]2C)c1
  Yeast UUG start: -2.8 | HIV Env fusion: -59.8[16.7 µM]
canonical_smiles: C[C@H]1CN([C@@H](C)CO)S(=O)(=O)c2ccc(C#Cc3ccc(F)cc3)cc2O[C@H]1CN(C)S(=O)(=O)c1ccc(F)cc1
  Yeast UUG start: -26.1 | HIV Env fusion: 30.3[16.7 µM]
canonical_smiles: CCNC(=O)C[C@@H]1CC[C@@H]2[C@H](COc3ccc(NC(=O)C4CCOCC4)cc3C(=O)N2C)O1
  Yeast UUG start: 4.6 | HIV Env fusion: -6.0[16.7 µM]
canonical_smiles: Cc1ccccc1S(=O)(=O)NCC[C@@H]1CC[C@H](NC(=O)Nc2cccc(F)c2)[C@H](CO)O1
  Yeast UUG start: -0.2 | HIV Env fusion: -3.1[16.7 µM]

# More records follow:
SMILES,Yeast UUG start,HIV Env fusion
COc1ccc(CN(C)C[C@@H]2OCCCC[C@@H](C)Oc3ccc(NC(=O)Nc4ccccc4)cc3C(=O)N([C@@H](C)CO)C[C@@H]2C)cc1,25.9,-13.6[16.7 µM]
CC(C)CNC(=O)[C@@]1(C)c2ccccc2C(=O)N(Cc2ccccc2)[C@H]1c1ccc(CO)cc1,-9.2,0.3[16.7 µM]
CCC(=O)N(C)C[C@@H]1Oc2ncc(C#CCC3CCCC3)cc2C(=O)N([C@@H](C)CO)C[C@H]1C,5.3,18.4[16.7 µM]
C[C@@H](NC(=O)C[C@@H]1CC[C@@H](NC(=O)CN2CCOCC2)[C@@H](CO)O1)c1ccccc1,-18.2,13.7[16.7 µM]
C[C@H](CO)N1C[C@H](C)[C@@H](CN(C)S(=O)(=O)c2cn(C)cn2)OCCCC[C@H](C)Oc2ccc(NC(=O)CCC(F)(F)F)cc2C1=O,10.1,3.6[16.7 µM]
C[C@@H]1CCCCO[C@H](CN(C)C(=O)Cc2ccccc2)[C@H](C)CN([C@H](C)CO)C(=O)c2cc(NC(=O)c3ccccc3)ccc2O1,1.1,-0.6[16.7 µM]
CCC(=O)N(C)C[C@@H]1Oc2ncc(/C=C/c3ccccc3)cc2C(=O)N([C@H](C)CO)C[C@@H]1C,5.9,-18.4[16.7 µM]
C[C@@H]1CCCCO[C@H](CN(C)C(=O)CCCN(C)C)[C@H](C)CN([C@@H](C)CO)C(=O)c2cc(NS(=O)(=O)c3ccc(F)cc3)ccc2O1,14.4,7.8[16.7 µM]
COc1ccc(S(=O)(=O)N2C[C@H](O)COC[C@@H]3O[C@H](CC(=O)N[C@@H]4CCN(Cc5ccccc5)C4)CC[C@H]32)cc1,-4.9,0.1[16.7 µM]
C[C@H](CO)N1C[C@H](C)[C@@H](CN(C)C(=O)Cc2ccccc2)Oc2ncc(C#CC3(O)CCCC3)cc2C1=O,24.6,11.3[16.7 µM]
C[C@H](CO)N1C[C@H](C)[C@@H](CN(C)C(=O)c2ccncc2)OCCCC[C@H](C)Oc2ccc(NC(=O)NC3CCCCC3)cc2C1=O,8.7,-4.3[16.7 µM]
C[C@H](CO)N1C[C@H](C)[C@@H](CN(C)CC2CCOCC2)Oc2ncc(C#Cc3ccccc3)cc2C1=O,5.0,11.4[16.7 µM]
COc1ccccc1NC(=O)N(C)C[C@@H]1Oc2ncc(C#CCN(C)C)cc2C(=O)N([C@@H](C)CO)C[C@@H]1C,2.1,9.3[16.7 µM]
C[C@H](CO)N1C[C@H](C)[C@@H](CN(C)C(=O)Nc2ccccc2)Oc2cc(C#CC3(O)CCCC3)ccc2S1(=O)=O,0.8,-75.1[16.7 µM]
COc1ccc(NC(=O)Nc2ccc3c(c2)[C@H]2C[C@H](CC(=O)NCc4ccc5c(c4)OCO5)O[C@H](CO)[C@H]2O3)cc1,5.4,4.8[16.7 µM]
C[C@@H]1CN([C@H](C)CO)C(=O)c2cccc(NS(=O)(=O)c3cccs3)c2O[C@H]1CN(C)C(=O)Nc1ccccc1,-8.8,11.8[16.7 µM]
CN1C(=O)c2cc(NS(=O)(=O)c3ccc(F)cc3)ccc2OC[C@@H]2O[C@H](CC(=O)O)CC[C@H]21,-14.4,17.2[16.7 µM]
CCCN(C)C[C@H]1Oc2cc(C#CC(C)(C)O)ccc2S(=O)(=O)N([C@H](C)CO)C[C@H]1C,-0.6,-0.1[16.7 µM]
COc1ccc(-c2ccc3c(c2)O[C@@H](CN(C)CC2CCOCC2)[C@@H](C)CN([C@H](C)CO)S3(=O)=O)cc1,16.6,-0.1[16.7 µM]
CC(=O)N(C)C[C@H]1Oc2cc(C#Cc3ccccn3)ccc2S(=O)(=O)N([C@@H](C)CO)C[C@@H]1C,16.6,-7.1[16.7 µM]

# HIV Env fusion: hit marks shown above
SMILES,Yeast UUG start,HIV Env fusion
COc1ccc(S(=O)(=O)Nc2ccc3c(c2)C(=O)N([C@H](C)CO)C[C@@H](C)[C@@H](CN(C)Cc2ccc(C(F)(F)F)cc2)OCCCC[C@H](C)O3)cc1,33.1,73.9*[16.7 µM]

# Next entries follow:
SMILES,Yeast UUG start,HIV Env fusion
COCC#Cc1ccc2c(c1)O[C@H](CN(C)S(=O)(=O)c1cccc(F)c1)[C@@H](C)CN([C@@H](C)CO)S2(=O)=O,-5.7,-3.8[16.7 µM]
COc1ccc(NC(=O)Nc2cccc3c2O[C@H](CN(C)Cc2ccc(-c4ccccc4)cc2)[C@H](C)CN([C@@H](C)CO)C3=O)cc1,6.4,-16.3[16.7 µM]
O=C(C[C@@H]1C[C@@H]2c3cc(NC(=O)NC4CCCC4)ccc3O[C@@H]2[C@@H](CO)O1)NCCN1CCCCC1,-5.6,-4.2[16.7 µM]
C[C@@H]1CCCCO[C@@H](CN(C)C(=O)C2CCCCC2)[C@@H](C)CN([C@H](C)CO)C(=O)c2cc(NS(=O)(=O)c3ccc(Cl)cc3)ccc2O1,-6.2,-102.9[16.7 µM]
C[C@@H]1CN([C@H](C)CO)S(=O)(=O)c2ccc(C#CC3CC3)cc2O[C@H]1CN(C)C(=O)C1CCC1,2.1,12.9[16.7 µM]
COc1ccc(NC(=O)Nc2ccc3c(c2)CC(=O)N([C@@H](C)CO)C[C@H](C)[C@@H](CN(C)Cc2ccc(C(=O)O)cc2)O3)cc1,5.8,-1.7[16.7 µM]
CNC[C@@H]1Oc2ccc(NC(=O)NC(C)C)cc2C(=O)N([C@H](C)CO)C[C@@H]1C,-10.2,-2.9[16.7 µM]
COc1ccc(S(=O)(=O)N(C)C[C@@H]2Oc3ccc(NC(=O)Nc4ccc(C(F)(F)F)cc4)cc3CC(=O)N([C@@H](C)CO)C[C@H]2C)cc1,-6.8,26.8[16.7 µM]
C=CCNC(=O)[C@H]1[C@@H]2C(=O)O[C@@H](c3ccccc3)[C@@H](c3ccccc3)N2[C@@H](c2ccc(OCCO)cc2)[C@]12C(=O)Nc1ccc(C#CCC(C(=O)OC)C(=O)OC)cc12,2.3,-2.4[16.7 µM]
C[C@@H]1CN([C@H](C)CO)C(=O)Cc2cc(NS(=O)(=O)c3cccs3)ccc2O[C@@H]1CN(C)Cc1ccc(C(F)(F)F)cc1,6.6,20.2[16.7 µM]
C[C@@H]1CN([C@H](C)CO)C(=O)c2cccc(NC(=O)C3CC3)c2O[C@H]1CN(C)Cc1ccc(C(=O)Nc2ccccc2N)cc1,0.9,19.4[16.7 µM]
C[C@H](O)C#Cc1ccc2c(c1)O[C@H](CN(C)C(=O)C1CCC1)[C@@H](C)CN([C@@H](C)CO)S2(=O)=O,10.6,4.0[16.7 µM]
CNC[C@@H]1Oc2ccc(NC(=O)NC3CCCCC3)cc2CC(=O)N([C@H](C)CO)C[C@@H]1C,9.9,-0.2[16.7 µM]
Cc1ccc(S(=O)(=O)Nc2ccc3c(c2)C(=O)N([C@H](C)CO)C[C@H](C)[C@@H](CN(C)S(=O)(=O)c2c(C)noc2C)OCCCC[C@H](C)O3)cc1,13.6,-6.0[16.7 µM]
C[C@@H]1CN([C@H](C)CO)C(=O)c2cc(NC(=O)CCC(F)(F)F)ccc2O[C@@H](C)CCCCO[C@H]1CN(C)C(=O)c1ccccc1,12.8,8.5[16.7 µM]
Cc1ccc(S(=O)(=O)N(C)C[C@@H]2OCCCC[C@@H](C)Oc3ccc(NS(=O)(=O)c4c(C)noc4C)cc3C(=O)N([C@H](C)CO)C[C@H]2C)cc1,-2.0,-21.9[16.7 µM]
COc1cccc(-c2cnc3c(c2)C(=O)N([C@H](C)CO)C[C@H](C)[C@H](CN(C)C(=O)Nc2ccccc2)O3)c1,-0.2,15.8[16.7 µM]
CC(C)NC(=O)N(C)C[C@H]1Oc2c(NS(=O)(=O)c3cn(C)cn3)cccc2C(=O)N([C@H](C)CO)C[C@H]1C,5.7,36.3[16.7 µM]
C[C@@H]1CCCCO[C@@H](CN(C)S(=O)(=O)c2ccccc2)[C@H](C)CN([C@H](C)CO)C(=O)c2cc(NC(=O)Nc3ccc4c(c3)OCO4)ccc2O1,-3.7,-13.3[16.7 µM]
O=C(N[C@@H]1CC[C@H](CCn2cc(C3(O)CCCC3)nn2)O[C@H]1CO)C1CCCCC1,0.6,2.4[16.7 µM]
O=C(C[C@@H]1C=C[C@H](NS(=O)(=O)c2ccccc2)[C@@H](CO)O1)NCc1ccncn1,-14.1,-4.9[16.7 µM]
COC(=O)C[C@H]1C[C@H]2c3cc(N(C)C)ccc3O[C@H]2[C@@H](CO)O1,18.0,16.4[16.7 µM]
C[C@@H]1CN([C@H](C)CO)C(=O)c2cc(C#Cc3cccc(F)c3)cnc2O[C@@H]1CN(C)CC1CCCC1,-13.9,6.6[16.7 µM]
Cc1noc(C)c1S(=O)(=O)N(C)C[C@@H]1Oc2ccc(NS(C)(=O)=O)cc2CC(=O)N([C@H](C)CO)C[C@@H]1C,-6.6,-16.1[16.7 µM]

# Source: PubChem
